RN4220 kill – S. aureus RN4220 growth inhibition; OD600, 16 h; inhibition, % (test concentration not listed); 330,000 tested, 0.33% active;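 active = z-score of -3 or lower and OD600 up to 0.18 on both plates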;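 also: plate controls were untreated cells for no effect and reference antibiotic for full effect; stock transfer was 100 nL into about 80 µL; one replicate is shown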
BJeLR viability – kills HRASV12-expressing BJeLR cells | BJeLR (HRASV12) viability, CellTiter-Glo ATP luminescence, 48 h; reference of the scale not given here | inhibition, % (no concentration beside the values) | 300,000 tested, 0.17% active | AID 1554;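 active = replicate mean above 50%; inconclusive = above 50% but judged a plate artefact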;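 also: 50 nL library stock added to about 25 µL; numbers are from one replicate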
Mtb hypoxia rep – reduces hypoxia-regulated biosensor signal in M. tuberculosis | M. tuberculosis hypoxia-regulated fluorescent reporter, fluorescence | fluorescence inhibition, % (no concentration beside the values) | 300,000 tested, 0.1% active;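 active = 35 to 45% if threefold the growth effect, above 45% if 1.5-fold the growth effect; inactive = the rest, general growth blockers included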;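 also: wells of about 50 µL received 100 nL stock; 0% = vehicle wells and 100% = reference inhibitor wells; whole bacteria with a GFP reporter of the hypoxia response; strong numbers were not always called active; many hits fall short of the cut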
ugtP null kill – kills S. aureus RN4220 lacking UgtP; S. aureus RN4220 ugtP deletion, OD600 growth, 16 h; some inactives read as strong as hits; growth inhibition, % (no concentration beside the values); 330,000 tested, 0.54% active; AID 1259309;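 active = z-score under -3 and OD600 up to 0.15 on both plates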;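 also: plate controls were untreated wells for no effect and antibiotic for full effect; wells of about 80 µL received 100 nL stock; the first replicate is given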
PrP 5UTR inh – inhibition of PrP 5' UTR reporter expression. cell-based PrP 5' UTR mRNA reporter, plate reader. inhibition, % (no concentration beside the values). 340,000 tested, 0.35% active. AID 488862;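 active = every replicate at 50% or more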;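 also: 0 = median of the neutral control wells; tested in H4 reporter cells; numbers are from one replicate; inactives centre near -14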
Autofluor counter – counter-screen for toxin protease inhibitors: compound fluorescence | 360,000 tested, 3.1% active | compound autofluorescence counterscreen, microsphere flow cytometry; hits give high values | fluorescence intensity (test concentration not listed);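 active = at least 3 SD above the mean of all compounds, about 16000 in these data; inconclusive = too few beads counted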;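 also: 100 nL of 1 mM stock went into each well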
Mtb hypoxia rep growth – second read-out of Mtb hypoxia rep, no call of its own (marks repeat the call); growth inhibition, %; measured here: M. tuberculosis growth (absorbance);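 0% = vehicle and 100% = reference antibiotic; read after six days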
Numbers without * were called inactive; ? = inconclusive; nt = not tested or not shown. Hits appear at their usual frequency; 4% or so of the library scored in one or more.

Below each compound: RN4220 kill	Mtb hypoxia rep	BJeLR viability	Autofluor counter	Mtb hypoxia rep growth	ugtP null kill	PrP 5UTR inh
> COc1ccc(N=C/C=C2/C=C(c3ccccc3)OC(C)(C)O2)cc1
  2.1	-4	-4	2643	4	2	-9
> CCN1CC2C3C(=O)N(C)C(=O)C3[C@](Cc3ccccc3)(C1=O)N2C(=O)c1ccc(F)cc1 (stereo not given in full)
  7.3	11	nt	nt	7	1	nt
> CCN1CCN(C(CNS(=O)(=O)c2cccs2)c2cccnc2)CC1 (stereo not given)
  3.7	10	-5	4303	4	2	0
> Cc1nnc(N/N=C/c2cc(C)n(-c3ccc(F)cc3)c2C)n1N
  nt	nt	3	1951	nt	nt	-13
> CC(C)N1C(=S)SC2CS(=O)(=O)C=C21 (stereo not given)
  -5.8	7	-8	2625	3	6	-19
> c1ccc2c(-c3nnc4n3CCCCC4)c[nH]c2c1
  -0.9	-14	19	?	0	-3	14
> CCOC(=O)Cc1cc(=O)[nH]c(=O)[nH]1
  2.2	3	-6	2460	-3	4	-25
> CCN(C(=O)CON=Cc1ccc(OC)cc1OC)c1c(N)n(Cc2ccccc2)c(=O)[nH]c1=O
  -0.5	7	nt	nt	-7	-6	nt
> CCOc1ccc(NC(=O)COC(=O)c2cccnc2)cc1
  4.9	0	1	4608	3	0	-8
> CCOC(=O)C1C(c2cc(OC)c(O)c(OC)c2)NC(=S)NC1(O)C(F)(F)F (stereo not given)
  0.9	12	7	2600	5	2	-10
> Cc1nc(NC(=O)c2ccc(-c3cc4ccccc4oc3=O)cc2)ccc1Br
  1.2	-3	-25	2124	1	9	-17
> CNC(=O)C12N=CNN=C1N(C)C(=O)N2C (stereo not given)
  3.5	6	-12	4816	0	8	-25
> O=C(Nc1ccncc1)Nc1cccc(C(F)(F)F)c1
  -16	0	6	4593	-12	-27	0
> c1ccc(C(c2nnnn2C2CCCC2)N2CCCCCC2)nc1 (stereo not given)
  0.8	3	5	7382	6	3	-20
> S=c1[nH]nc(-c2ccco2)n1N=C/C=C/c1ccco1
  5.8	11	nt	nt	7	3	nt
> COc1ccc(N2CCN(S(=O)(=O)c3ccc4c(c3)NC(=O)CS4)CC2)cc1
  0.0	-6	-5	4720	0	4	-21
> O=C(O)CCN1C(=O)C2C3CC(C2C1=O)C1C(c2ccccc2)c2sc(=O)[nH]c2SC31 (stereo not given)
  4.8	1	-4	2200	13	16	-28
> Cc1cccc(S(=O)(=O)NCC2CCCO2)c1 (stereo not given)
  4.2	nt	-6	2441	nt	7	-20
> COc1ccc(Cl)cc1S(=O)(=O)NC(C)C(=O)NCc1ccncc1 (stereo not given)
  1.6	7	-2	4987	6	7	-49
> NS(=O)(=O)c1cc2c(cc1Cl)NC(CSCc1ccccc1)=NS2(=O)=O
  7.7	4	3	5443	11	2	-24
> CC(=O)CCC(=O)N1CCCC(CNC(=O)c2ccc(-c3ccccc3)cc2)C1 (stereo not given)
  0.9	2	-18	4450	11	16	-18
> Cc1ccccc1CNC(=O)CCCn1ncn2c(cc3occc32)c1=O
  2.2	4	-3	5298	1	0	2
> Cc1c(NC(=O)CSc2n[nH]c(=O)n2-c2ccccc2)c(=O)n(-c2ccccc2)n1C
  3.0	-3	-4	4202	0	-1	-21
> O=C(NN=Cc1ccc(-c2cccc([N+](=O)[O-])c2)o1)c1ccc([N+](=O)[O-])cc1
  -1.2	-2	nt	nt	11	-1	nt
> CC(C)N(CC(N)=O)c1ccc(S(=O)(=O)N2CCCC2)cn1
  -1.9	8	nt	5426	2	2	nt
> CCN(C(=O)c1cc2c(=O)[nH]c3ccc(C)cc3c2s1)c1ccccc1F
  4.0	-9	0	nt	-13	-6	-6
> O=C(NCC1CCCO1)c1csc2c1CCCCC2 (stereo not given)
  4.8	nt	7	12725	nt	-2	-8
> Cc1c(-c2ccc(Cl)cc2Cl)nc2ccccc2c1C(=O)NCCN1CCOCC1
  -0.4	8	-5	5414	11	5	-8
> COc1ccc2c(c1)c(C(=O)CN1CCC3(CC1)OCCO3)c(C)n2Cc1ccccc1
  -3.9	nt	9	2386	nt	2	-19
> CC(C)OC(=O)C1C(=O)CC(C)(O)C(C(=O)OC(C)C)C1c1cccc([N+](=O)[O-])c1 (stereo not given)
  6.8	0	-9	4932	9	11	-14

In a second layout: results already given.
molecule	RN4220 kill	Mtb hypoxia rep	BJeLR viability	Autofluor counter	Mtb hypoxia rep growth	ugtP null kill	PrP 5UTR inh
Cc1nnc(N/N=C/c2cc(C)n(-c3ccc(F)cc3)c2C)n1N	nt	nt	3	1951	nt	nt	-13
CC(C)N1C(=S)SC2CS(=O)(=O)C=C21 (stereo not given)	-5.8	7	-8	2625	3	6	-19

Later entries:
Below each compound: RN4220 kill	Mtb hypoxia rep	BJeLR viability	Autofluor counter	Mtb hypoxia rep growth	ugtP null kill	PrP 5UTR inh
> CCCCn1c(CN2CCN(c3ccc(F)cc3)CC2)nc2c1c(=O)n(C)c(=O)n2C
  4.4	-4	2	5989	-3	0	-10
> COc1ccc(OCCn2cc(C=O)c3ccccc32)cc1
  3.4	7	8	3380	8	14	-17
> Cc1ccc(OCC(=O)Nc2cccnc2Cl)cc1C
  0.3	-6	-9	3035	-6	6	-21
> O=C(CSc1nnc(-c2cccs2)n1C1CC1)NC1CCS(=O)(=O)C1 (stereo not given)
  -0.3	-2	nt	4044	7	-2	-23
> CCCCCC(=O)N1CC2(CC)CN(C(=O)CCCCC)CC(CC)(C1)C2=O
  3.5	15	-4	3585	11	4	-3
> Cc1c(C(=O)OC(C)C)sc(NC(=O)C2CCCO2)c1C(=O)OC(C)C (stereo not given)
  7.1	2	-12	5372	22	9	-19
> O=c1c2ccccc2nc(-c2ccco2)n1Cc1ccccc1
  1.0	7	3	10483	11	17	-35
> CC(=O)NCC(=O)NC(C(=O)Nc1ccc2c(c1)OCCO2)c1ccccc1 (stereo not given)
  -0.1	nt	-6	3918	nt	-5	3
> Cc1cccc(N2CC(C(=O)NCc3ccco3)CC2=O)c1C (stereo not given)
  4.1	-1	nt	?	0	1	-23
> Cc1cc(S(=O)(=O)Nc2ccc(C(=O)NCC(c3ccco3)N3CCCC3)cc2)ccc1F (stereo not given)
  3.5	-4	8	6696	11	8	-48
> CN=C1CN(O)C(c2ccccc2)=c2cc(Cl)ccc2=N1
  7.2	1	7	4369	7	3	-6
> N#Cc1c(-c2ccccc2)nc(N2CCN(Cc3ccccc3)CC2)[nH]c1=O
  3.4	-7	5	3824	7	5	-8
> COc1ccc(-n2nnc3c(=O)n(CC(=O)N4CCC(Cc5ccccc5)CC4)cnc32)cc1
  -2.8	-4	-4	4342	0	-6	-2
> Cc1c(NC(=O)NC2CCCCC2)cccc1[N+](=O)[O-]
  6.2	7	-6	3155	2	4	-12
> COc1ccc(C(CNC(=O)C(C)Sc2ccccc2)N2CCOCC2)cc1 (stereo not given)
  9.2	-12	nt	?	-7	1	-10
> COc1ccc(NC(=O)C2=NNC(=O)CC2)cc1S(=O)(=O)N1CCCCC1
  0.8	-8	-11	4603	-3	1	-8
> COc1cccc(CNc2ccccn2)c1O
  nt	nt	-6	4522	nt	nt	-14
> O=C(OCc1nc2ccsc2c(=O)[nH]1)c1cccc(S(=O)(=O)N2CCOCC2)c1
  3.9	2	-3	?	9	7	-21
> COc1ccc(/C=N/NC(=O)c2cccnc2)cc1CN1CCN(c2ccc(F)cc2)CC1
  nt	nt	-2	3490	nt	nt	-39
> COc1cccc(NC(=O)COc2cccnc2[N+](=O)[O-])c1
  -4.5	9	nt	3267	1	-5	-48
> Cc1cccc(Nc2cnn(C34CC5CC(CC(CC(=O)O)(C5)C3)C4)c(=O)c2Cl)c1
  1.0	14	-2	10844	6	4	-35
> O=C(O)CCCN=Cc1c(O)c2ccccc2oc1=O
  8.4	-7	-4	3256	2	8	-32
> COc1cc(OC)c(C(=O)Nc2ccc(S(=O)(=O)N3CCCCC3)cc2)cc1OC
  -0.9	-13	0	5968	-1	1	-17
> Cc1ccc2nc(-c3ccc(NC(=O)CN4C(=O)NC(C)(c5ccc(OC(F)F)cc5)C4=O)cc3)sc2c1 (stereo not given)
  -4.9	5	-11	2527	6	12	-80
> NS(=O)(=O)c1ccc(NC(=O)COC(=O)c2cnccn2)cc1
  nt	nt	2	4639	nt	nt	-30
> O=C(OCc1nnc(-c2ccccc2)o1)C1CC(=O)N(CCc2ccccc2)C1 (stereo not given)
  5.7	-2	nt	2902	-4	1	-18
> COc1ccc(NC(=O)C2CCC2)cc1S(=O)(=O)Nc1cc(C)ccc1Br
  -0.4	5	nt	3588	6	-12	-12
> COc1cc(OC)cc(C2C(C#N)=C(N)Oc3n[nH]c(-c4cccnc4)c32)c1 (stereo not given)
  5.7	2	0	7692	0	0	-6
> COc1ccc(CNC(=O)COC(=O)c2ccc3ncsc3c2)cc1OC
  2.0	10	nt	6929	4	1	-1
> Cc1cc(C)nc(NC2=NCC(=O)N2c2ccccc2)n1
  2.0	nt	-4	nt	nt	-1	-22

Remaining list, next part.
Below each compound: RN4220 kill	Mtb hypoxia rep	BJeLR viability	Autofluor counter	Mtb hypoxia rep growth	ugtP null kill	PrP 5UTR inh
> Cc1ccc(CN2CCN(N=Cc3ccc(Cl)c([N+](=O)[O-])c3)CC2)cc1
  -6.4	2	nt	nt	-2	-15	nt
> CCOc1ccc(C(=O)NC(Cc2ccccc2)C(=O)OC)cc1 (stereo not given)
  2.6	nt	1	3578	nt	7	-44
> COc1cc2c(cc1OC)C(C(=O)Nc1cccc(C)n1)C(c1cccnc1)N(C)C2=O (stereo not given)
  3.1	8	nt	9596	5	-3	-38
> COc1ccc(NC(=O)Cc2coc3cc(C)ccc23)cn1
  -3.1	4	3	4504	2	12	-14
> CCC(C)(C)n1nnnc1C(c1cc(OC)c(OC)c(OC)c1)N1CCN(c2ccccc2)CC1 (stereo not given)
  1.6	nt	3	5740	nt	-2	-9
> CN(C(=O)COC(=O)Cc1ccccc1[N+](=O)[O-])C1CCS(=O)(=O)C1 (stereo not given)
  2.0	-3	nt	8932	-5	0	-10
> COCCNC(=O)C(=O)NN=Cc1ccc(C(=O)OC)cc1
  3.1	7	nt	nt	9	8	nt
> S=C(Nc1ccc(N2CCOCC2)cc1)Nc1ccc2snnc2c1
  1.7	nt	3	4132	nt	-7	-19
> Cc1ccc(-n2nnnc2SCC(=O)NCC2(N3CCOCC3)CCCCC2)c(C)c1
  1.1	4	nt	6487	2	2	-15
> CCCSC(N)=NN=Cc1ccccc1O
  9.5	12	nt	nt	0	-3	nt
> CCOC(=O)c1sc(NC(=O)CSc2ncccn2)nc1C
  -0.6	3	-13	4741	3	5	-7
> CCC(C)c1ccc(NC(=O)Nc2cnccn2)cc1 (stereo not given)
  3.8	2	17	5661	18	0	-77
> Cc1ccc(S(=O)(=O)N2CCN(CC(=O)NN=Cc3ccc(O)c(O)c3)CC2)cc1
  4.7	12	nt	nt	14	4	nt
> COc1cc(C(=S)N2CCOCC2)cc(OC)c1OS(=O)(=O)c1ccc(Cl)cc1
  3.7	1	10	nt	-4	0	7
> Cc1cccc(NCCC(=O)c2ccc([N+](=O)[O-])cc2)c1C
  0.4	-5	-5	4604	4	-11	-8
> Cc1ccc(-c2cnn(-c3ccccc3)c2N)cc1
  5.4	1	6	3460	1	-2	-20
> O=C(NCc1cccnc1)C1CCCN(S(=O)(=O)c2ccc(Br)cc2)C1 (stereo not given)
  -1.7	nt	-1	4520	nt	-3	-8
> O=C(c1ccncc1)c1ccc([N+](=O)[O-])cc1
  75*	-14	7	4175	-2	96	-24
> COc1ccc(OC)c2sc(Cl)nc12
  -2.6	4	-4	4021	0	-5	-7
> O=C(CN1CCOCC1)Nc1ccccc1C(=O)O
  -0.4	-5	0	6213	6	0	-17
> Cc1ccc(OCC(O)Cn2c(NCCc3ccccc3)nc3c2c(=O)[nH]c(=O)n3C)cc1 (stereo not given)
  2.9	nt	6	2940	nt	3	-10
> CCOc1ccc(N(CC(=O)NC2CCCCC2)C(=O)CCC(=O)Nc2cc(C)ccn2)cc1
  1.6	3	-8	5962	-1	2	-8
> COc1ccc(CN2C(=O)c3ccccc3C2=O)cc1C(=O)N(C)CC(=O)Nc1ccc(F)cc1
  5.7	6	nt	8925	-3	-2	-5

Screening data as filed in PubChem BioAssay.
